VDR inh = Inhibitors of the vitamin D receptor (VDR): qHTS; VDR-SRC2-3 peptide fluorescence polarization, 2 h; actives 0.93% (n = 400,000); Vitamin D3 receptor (Homo sapiens), P11473; Potency, µM, without a hit: max response, negative = inhibition, most hits filed as inhibitors; active means well fitted inhibition curve with a large enough effect; inconclusive means small, poorly fitted or top-dose-only effect, or another doubt; inactive means no such curve, though single readings can be large or run the other way; further: series mostly up to about 120 µM
Target sequence (P11473 whole entry, looked up): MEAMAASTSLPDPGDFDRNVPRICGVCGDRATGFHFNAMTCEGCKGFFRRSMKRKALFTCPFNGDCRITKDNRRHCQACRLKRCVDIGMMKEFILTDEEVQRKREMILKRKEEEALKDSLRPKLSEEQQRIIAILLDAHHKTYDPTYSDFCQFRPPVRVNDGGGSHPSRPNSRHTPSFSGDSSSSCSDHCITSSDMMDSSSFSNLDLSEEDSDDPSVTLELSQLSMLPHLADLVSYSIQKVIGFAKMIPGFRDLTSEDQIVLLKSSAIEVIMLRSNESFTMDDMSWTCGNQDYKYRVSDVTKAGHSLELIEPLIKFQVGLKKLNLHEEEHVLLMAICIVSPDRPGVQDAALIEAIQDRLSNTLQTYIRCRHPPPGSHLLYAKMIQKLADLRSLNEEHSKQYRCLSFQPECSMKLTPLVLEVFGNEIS
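Measured by FP: displacement of SRC2-3 coactivator peptide from VDR by library compounds, following a two-hour ambient incubation.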
The depositor's hits bear a star; ? = inconclusive. On the % scale 0 is the no-effect control and ±100 the full control effect; potency means the concentration at half of the fitted maximal effect. Some of the compounds tested; the hit share may differ from the screen's.

SMILES	VDR inh
CCc1cc2cc(OC)ccc2nc1SCC(=O)NNC(=O)c1ccco1	-9.7%
CCN(CC)CCN1C(=O)C(=O)/C(=C(/O)c2c(C)[nH]c(C(=O)OC)c2C)C1c1ccc(C)o1 (stereo not drawn)	14.3%
CCNC(=S)N1CCN(S(=O)(=O)c2ccccc2C(F)(F)F)CC1	-11.8%
O=[S+]([O-])([O-])c1ccc2c(c1)cc([S+](=O)([O-])[O-])c1nn(-c3ccc(/C=C/c4ccc(-n5nc6c([S+](=O)([O-])[O-])cc7cc([S+](=O)([O-])[O-])ccc7c6n5)cc4[S+](=O)([O-])[O-])c([S+](=O)([O-])[O-])c3)nc12	1.9%
O=C1CC(c2ccccc2)n2nc(NC(=O)c3ccccc3)nc2N1 (stereo not drawn)	26.6%
Cc1ccc(S(=O)(=O)N[C@H](C(=O)Oc2ccc3c(C(F)(F)F)cc(=O)oc3c2)c2ccccc2)cc1	?
Cc1ccc(C(=O)Nc2cc3c(cc2N2CCCCC2)n(C)c(=O)n3C)cc1	-9.1%
CCNC(=O)c1sc(-c2ccccc2)nc1C	11.6%
CC(C)(C)N1C(=O)c2ccc(C(=O)Nc3ccc(-c4nc5ccccc5[nH]4)cc3)cc2C1=O	1.4%
O=C(NC(=S)NN1CCCCC1c1cccnc1)c1ccc(Cl)cc1Cl (stereo not drawn)	0.4%
CCOC(=O)c1c(NC(=O)C2=COCCO2)sc2c1CCN(C(=O)OC)C2	-15.4%
CCSc1nnc(NC(=O)c2cc(=O)c3cc(C)ccc3o2)s1	11.4%
CCCCn1c(SCC(=O)c2ccc(OC)cc2OC)nc2cc(S(N)(=O)=O)ccc21	-3.8%
CCOc1ccc(C(=O)NC(=S)NC2CCCC2)cc1[N+](=O)[O-]	-4.3%
Cc1c(C(=O)N/N=C/c2ccc(O)c(Br)c2)sc(N)c1C#N	8.4%
CCOC(=O)C1CCCN(c2nc3ccccc3nc2C(C#N)C(=O)NCc2ccccc2)C1 (stereo not drawn)	9.6%
O=C(Cn1ncc2c(=O)oc3ccccc3c21)NCCc1ccsc1	-11.0%
CCc1ccc(CNCc2c(C(=O)O)n(Cc3cccc(F)c3)c3cc(OC)ccc23)cc1	4.7%
CC1CCN(S(=O)(=O)c2ccc3c(c2)N(CC(=O)NC(C)(C)C)C(=O)CS3)CC1	-1.6%
CC(=O)Nc1cc2c3c(c1)CC(=O)N3CCC2	1.9%
O=C(CSc1cccc[n+]1[O-])c1ccc(Cl)s1	-10.2%
Cc1nc(=O)c(-c2ccccc2)c(C)n1-c1ccc(C(=O)O)cc1	3.3%
COc1ccccc1CCNC(=O)c1cnn2c(C(F)F)cc(C)nc12	-18.2%
COc1ccc(N(CC(=O)NCCSc2ccccn2)S(=O)(=O)c2ccc(C)cc2)cc1OC	3.0%
CCCCOP(=O)(c1ccc(N(C)C)cc1)C(O)c1cc(OC)ccc1OC (stereo not drawn)	11.6%

Some values from the results shown.
`COc1ccc(N(CC(=O)NCCSc2ccccn2)S(=O)(=O)c2ccc(C)cc2)cc1OC` | VDR inh = 3.0%
`CCCCn1c(SCC(=O)c2ccc(OC)cc2OC)nc2cc(S(N)(=O)=O)ccc21` | VDR inh = -3.8%
`Cc1nc(=O)c(-c2ccccc2)c(C)n1-c1ccc(C(=O)O)cc1` | VDR inh = 3.3%
`CC(=O)Nc1cc2c3c(c1)CC(=O)N3CCC2` | VDR inh = 1.9%
`CCNC(=O)c1sc(-c2ccccc2)nc1C` | VDR inh = 11.6%

New compounds follow:
SMILES	VDR inh
COC(=O)CN1C(=O)[C@H]2[C@@H](c3ccc(C)o3)N3C(=O)CN(CC4CC4)C(=O)[C@@]3(C)[C@H]2C1=O	-4.4%
Cn1c(NC(=O)c2cccc(C(F)(F)F)c2)cc(=O)n(C)c1=O	3.2%
O=C(O)CCC(=O)Nc1ccc(/C=C/C(=O)C2CC2)cc1	6.3%
CN(CC1CCCN(CCc2cccc(C(F)(F)F)c2)C1)C(=O)c1cc2ccccc2o1 (stereo not drawn)	-14.4%
Cc1cc(S(=O)(=O)NCc2ccccc2)ccc1OCC(=O)Nc1cccc([N+](=O)[O-])c1	0.8%
O=C(COc1ccc(S(=O)(=O)N2CCCC2)cc1)NCc1cccnc1	-0.4%
Cc1coc2c(C)c3oc(=O)c(CCC(=O)NCCCn4ccnc4)c(C)c3cc12	-19.3%
Cc1ccc(C(=O)NNC(=O)CSc2nnc3c(n2)[nH]c2ccc(F)cc23)cc1	0.1%
Cc1ccc(NS(=O)(=O)c2cc(Br)cnc2N)c(Cl)c1	-4.4%
COc1ccc(S(=O)(=O)N2CCOC2CNC(=O)C(=O)NCc2ccncc2)cc1 (stereo not drawn)	-11.3%
O=C(COC(=O)CCN1C(=O)c2cccc([N+](=O)[O-])c2C1=O)NC1CCS(=O)(=O)C1 (stereo not drawn)	-24.8%
Cc1ccc(N2CC(NC(=O)C(=O)c3c(C)[nH]c4ccccc34)CC2=O)cc1 (stereo not drawn)	-16.5%
COC(=O)c1ccccc1NC(=O)c1ccccc1NS(C)(=O)=O	-12.3%
COc1cccc(C(=O)N(c2ccc(OC)cc2OC)C2C=CS(=O)(=O)C2)c1 (stereo not drawn)	4.5%
CO/N=C(/CN1CCCCC1)c1ccc(Cl)cc1	2.5%
Cc1ccccc1-c1noc(-c2cc3ccccc3oc2=O)n1	5.0%
CC(Oc1ccccc1Cl)C(=O)N1CCCN(C)CC1 (stereo not drawn)	-25.1%
CCOc1ccc(NC(=O)C2CCN(S(=O)(=O)c3ccc4c(c3)NC(=O)C(C)S4)CC2)cc1 (stereo not drawn)	8.2%
COc1ccc(CCNC(=O)c2cc(=O)c3cc(C)cc(C)c3o2)cc1OC	13.0%
Cc1ccc2nc(NC(=O)COC(=O)c3ccccn3)sc2c1	-4.1%
CC(NC(=O)OC(C)(C)C)C(=O)Oc1cc2oc(=O)cc(-c3ccccc3)c2cc1Cl (stereo not drawn)	-5.4%
CCCCC[C@H]1CN(C2CCCCC2)C(=O)[C@@H]1CC(=O)NCc1ccc(OC)cc1	?
O=C(CCN1C(=O)/C(=C/c2cccs2)SC1=S)Nc1ccc(C(=O)O)cc1	-1.0%
COc1ccccc1CCC(=O)NNC(=O)c1ccncc1	14.7%
CC(C)(C)S(=O)(=O)Cc1nc(-c2ccc(Cl)c(Cl)c2)cs1	4.3%

Remaining list, next part.
SMILES	VDR inh
COc1ccc(-c2cc(C3CCN(c4cc(Cl)nc(N)n4)CC3)[nH]n2)cc1	12.6%
COc1ccc(N2CCN(S(=O)(=O)c3cc(Br)cc4c3N(C(=O)C3CC3)CC4)CC2)cc1	-0.9%
O=C(NCCCN1CCCC1=O)C1CCN(S(=O)(=O)c2ccc(Cl)cc2)CC1	-10.5%
O=C(CCc1ccccc1Cl)Nc1ccc(S(=O)(=O)N2CCOCC2)cc1	-8.9%
CCOC(=O)c1ccccc1NS(=O)(=O)c1cnn(CC)c1C	-0.3%
CCCCOC(=O)c1ccc(NC(=O)c2ocnc2C)cc1	4.1%
CCOc1ccc(-c2cn(-c3ccc(C)cc3)c(SCC(=O)Nc3ccc(C)cc3)n2)cc1	3.2%
COc1ccc(CN2CCNC(=O)C2CC(=O)NC2CCCC2)cc1OC (stereo not drawn)	-19.5%
Cc1cc(C)c(Cn2c(C3CC(=O)N(c4ccc(F)cc4)C3)nc3ccccc32)c(C)c1 (stereo not drawn)	10.8%
CCN(CC)S(=O)(=O)c1ccc2c(c1)c(=O)c(C(=O)NCCCN(C)c1ccccc1)cn2C	5.7%
NC(=O)c1oc2ccccc2c1NC(=O)c1ccc([N+](=O)[O-])o1	8.6%
CSc1ccc(S(=O)(=O)N2CCC(C(=O)Nc3cccnc3)CC2)cc1	3.2%
Cc1c(C(=O)Nc2ccc(F)cc2)oc2ccc(S(=O)(=O)N3CCC4(CC3)OCCO4)cc12	2.1%
COc1ccc2c(Sc3ccc(C)cc3)c(C(=O)NC(C)C)[nH]c2c1	3.5%
CCNC(=O)COC(=O)c1cc(S(=O)(=O)N2CCCCC2)ccc1C	3.1%
Cc1ccc2nc(Cl)c(-c3ccccc3)cc2c1	10.4%
COc1ccccc1/C=C/C(=O)NCC(=O)N/N=C/c1ccc2c(c1)OCO2	-1.2%
CCn1ccnc1CN1CCN(CC=C(C)C)C(CCO)C1 (stereo not drawn)	0.8%
COc1ccc(-n2nc(C(=O)NCC(=O)N3CCN(c4ccccc4)CC3)c3ccccc3c2=O)cc1OC	-3.8%
COc1ccccc1NC(=O)c1ncn(-c2ccccc2)n1	-2.3%
CNC(=O)COC(=O)c1cc(-c2ccccc2)nn1-c1ccccc1	3.2%
O=C1OC(c2cccs2)=N/C1=C\c1ccc(-c2cccc(Cl)c2)o1	-25.1%
O=C(CCCCCCCCCCC(=O)NCc1cccnc1)NCc1cccnc1	-6.6%
Cc1ccc(OCCNC(=O)CCNC(=O)c2ccc(Cl)cc2)cc1	-13.9%
CCn1c(=O)n(CC)c2cc(N3CCCC3)c(NC(=O)c3ccccc3C)cc21	-14.8%

The final 3 compounds of the part above open the next one.
SMILES	VDR inh
O=C(CCCCCCCCCCC(=O)NCc1cccnc1)NCc1cccnc1	-6.6%
Cc1ccc(OCCNC(=O)CCNC(=O)c2ccc(Cl)cc2)cc1	-13.9%
CCn1c(=O)n(CC)c2cc(N3CCCC3)c(NC(=O)c3ccccc3C)cc21	-14.8%
Cc1cc(C(=O)COC(=O)c2ccc[nH]c2=O)c(C)n1CCc1ccc(F)cc1	-7.6%
CSCCCNC(=S)N1CCN(S(=O)(=O)c2cccc(C(F)(F)F)c2)CC1	2.0%
O=C(Nc1nnc(S(=O)(=O)N2CCOCC2)s1)c1ccc(Cl)cc1	2.1%
COc1ccc(N2CCN(C(=O)COC(=O)CNC(=O)c3ccccc3)CC2)cc1	6.6%
Cc1ccc(-n2c(SCC(=O)NCc3cccs3)nnc2-c2ccoc2C)cc1	0.9%
CN1CCN(c2oc(/C=C/c3ccc(F)cc3)nc2C#N)CC1	12.1%
CC1CC(C)CN(C(=O)c2cc(-c3ccccn3)nc3ccccc23)C1 (stereo not drawn)	1.1%
CC(C)C[C@H](NC(=O)Nc1ccccc1F)C(=O)O	-1.5%
COc1ccc(N=Nc2ccc(N)nc2N)cc1	8.8%
Cc1cc2nc(Cl)c(Cl)nc2cc1C	12.9%
O=C1c2ccccc2C(=O)N1CC(=O)N1c2ccccc2Sc2ccccc21	11.5%
Cc1ccc(N2C(=O)C(CN3CCOCC3)C2c2ccccc2)cc1 (stereo not drawn)	-7.9%
Cc1oc(-c2ccccc2Cl)nc1CSc1nc2c(c(=O)[nH]1)CCC2	7.8%
COc1ccc(NC(=O)C2CCCN(S(=O)(=O)c3cccs3)C2)cc1OC (stereo not drawn)	3.1%
O=C(CC(NC(=O)c1ccccc1)c1ccccc1)NCc1ccccc1 (stereo not drawn)	-8.6%
O=C(Nc1ccc(F)cc1F)c1ccc(-n2cncn2)nc1	4.5%
CCn1c(=O)cc(C(F)(F)F)[nH]c1=S	-5.4%
c1ccc(CNc2oc(-c3ccccc3)nc2-c2ccccc2)cc1	14.1µM*
COCCNC(=O)CN(c1cccc(OC)c1)S(=O)(=O)c1ccc(C)cc1	6.1%
O=c1[nH]nc(SCc2nnc(-c3ccc([N+](=O)[O-])cc3)o2)n1C1CCCCC1	-1.6%
Cc1ccccc1C(=O)NC(=S)NCCC1=CCCCC1	-10.3%
O=C1CCCCC(=O)c2ccccc2N1	3.6%
O=C1OCC2=C1C(c1ccc3c(c1)OCO3)c1cc3c(cc1O2)OCO3 (stereo not drawn)	-0.5%
O=C(CN(Cc1ccco1)S(=O)(=O)c1cccs1)Nc1ccccc1C(F)(F)F	-14.4%
Cc1ccc(N(CC(O)CN2CCCCC2)S(=O)(=O)c2ccccc2[N+](=O)[O-])cc1 (stereo not drawn)	-7.0%

Next part:
SMILES	VDR inh
O=C1C(=O)N(CCS(=O)(=O)c2ccccc2)c2ccc(F)cc21	-0.5%
CCCCCC1CC(CC/C(C)=N/NC(N)=O)C(=O)O1 (stereo not drawn)	-4.6%
COC(=O)Cn1cnc2c(nnn2Cc2ccc(Cl)cc2)c1=O	8.0%
Cc1ccc(-c2nc(N)sc2CC(=O)OCC(=O)NCC2CCCO2)cc1 (stereo not drawn)	-9.3%
COc1ccc(C2=NCC(CSc3nnnn3C)S2)cc1 (stereo not drawn)	-0.4%
C=CCn1c(SCC(=O)Nc2ccc3c(c2)OCCO3)nnc1-c1ccccn1	4.1%
CCCCN1c2cc(C)c(O)cc2C(C(=O)OCC)C1C (stereo not drawn)	-1.0%
CC1C(=O)CC(c2ccc([N+](=O)[O-])cc2)NC1c1ccc([N+](=O)[O-])cc1 (stereo not drawn)	0.5%
CCSc1ccccc1C(=O)NCc1ccc(S(N)(=O)=O)cc1	-4.6%
N#Cc1c(F)cccc1NCc1cccnc1	-22.9%
CC(=O)N(c1ccccc1)C(C)c1nc(C#N)c(C#N)nc1C (stereo not drawn)	-3.3%
CCC1SC(CC)C(=O)N(CC(=O)NC2CCCCC2)C1=O (stereo not drawn)	4.5%
O=C(O)CCCC(=O)Nc1ccccc1C(=O)O	-2.5%
COc1ccccc1CN1CC(C(=O)NCCc2ccccc2Cl)CCC1=O (stereo not drawn)	-4.5%
Cc1cc(C(=O)Nc2ccccc2C(F)(F)F)no1	-0.7%
O=C(N/N=C/c1ccc(OC(F)F)cc1)c1cccc(S(=O)(=O)N2CCOCC2)c1	9.4%
COc1ccc(-c2c(C#N)c(N)n(N)c(=O)c2C#N)cc1Cl	-11.5%
Nc1nc(SCc2ccccc2)cc(SCc2ccccc2)n1	-6.3%
COc1ccc(S(=O)(=O)c2ccc(O)cc2)cc1	-1.1%
